CDC25B CDK2 inh: primary biochemical HTRF screen for blockers of M-phase inducer phosphatase 2 binding to CDK2/cyclin A. P30305+P24941. HTRF CDC25B-CDK2/CyclinA binding, anti-His/anti-Flag; hits give high values. z-score (concentration not given with the values). hit rate 0.72% among 94,000;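 further: score is relative to mean and SD of negative controls; strong numbers were not always called active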
TAR Tat displ: TAR RNA-Tat peptide displacers, HIV-1, primary screen, biochemical, FRET, FAM/TAMRA-labeled Tat; HIV-1 TAR RNA, Tat peptide displacement FRET; hits give high values; z-score (concentration not given with the values); hit rate 0.6% among 100,000; AID 1259389, 2018;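 further: score is relative to mean and SD of negative controls; some compounds called inactive have numbers as strong as hits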
* marks the source's active call; other numbers are inactive results; / = no result given.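 How the source made its calls: active means z-score from 3 up in half or more of its runs; inactive means the rest.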

structure	CDC25B CDK2 inh	TAR Tat displ
COc1ccc(C2/C(=C(/O)c3ccc(C)cc3)C(=O)C(=O)N2CC(C)O)cc1 (configuration not stated)	-1.3	1.1
Cc1nc2ccccc2nc1NO	1.1	/
O=C(COc1ccccc1F)Nc1nnc2n1CCS2	/	0.66
Cn1cnc2c(=O)oc3ccc(S(=O)(=O)N4CCOCC4)cc3c21	/	0.55
O=S(=O)(c1ccc(-c2cc(C(F)(F)F)on2)s1)N1CCc2c([nH]c3ccc(F)cc23)C1	-2.1	/
CCc1cc(-c2n[nH]c(C)c2-c2nc3ccccc3s2)c(O)cc1O	-1.4	-0.22
COc1cc2c(cc1OC)C(C(=O)Nc1ccc3c(c1)OCO3)C(c1cccs1)N(C)C2=O (configuration not stated)	-0.9	1.4
O=C(CCCc1nnc2n3nc(-c4ccccc4)nc3c3ccccc3n12)NCc1cccnc1	-0.53	0.01
NS(=O)(=O)c1ccc(-n2nc(C(F)(F)F)cc2-c2ccc(Cl)cc2)cc1	0.37	/
CCN1CCC2(CC1)OC(=O)C(C)=C2C(=O)NCCCN1C(C)CCCC1C (configuration not stated)	/	1.1
CC(C)(C)NC(=O)[C@@H]1C[C@@H]2CCCC[C@@H]2CN1C(=O)c1ccno1	-0.34	/
COc1cc2c(=O)n(Cc3ccco3)c(=O)n(CC(=O)c3ccc(Br)cc3)c2cc1OC	-1.3	1.3

Exported with two lines to a compound: part of the list above
Values in the order: CDC25B CDK2 inh	TAR Tat displ
CCc1cc(-c2n[nH]c(C)c2-c2nc3ccccc3s2)c(O)cc1O
 : -1.4	-0.22
COc1cc2c(cc1OC)C(C(=O)Nc1ccc3c(c1)OCO3)C(c1cccs1)N(C)C2=O (configuration not stated)
 : -0.9	1.4
O=C(CCCc1nnc2n3nc(-c4ccccc4)nc3c3ccccc3n12)NCc1cccnc1
 : -0.53	0.01
NS(=O)(=O)c1ccc(-n2nc(C(F)(F)F)cc2-c2ccc(Cl)cc2)cc1
 : 0.37	/
CCN1CCC2(CC1)OC(=O)C(C)=C2C(=O)NCCCN1C(C)CCCC1C (configuration not stated)
 : /	1.1
CC(C)(C)NC(=O)[C@@H]1C[C@@H]2CCCC[C@@H]2CN1C(=O)c1ccno1
 : -0.34	/
COc1cc2c(=O)n(Cc3ccco3)c(=O)n(CC(=O)c3ccc(Br)cc3)c2cc1OC
 : -1.3	1.3

Back to the main list with the 3 entries that preceded the break.
structure	CDC25B CDK2 inh	TAR Tat displ
CCN1CCC2(CC1)OC(=O)C(C)=C2C(=O)NCCCN1C(C)CCCC1C (configuration not stated)	/	1.1
CC(C)(C)NC(=O)[C@@H]1C[C@@H]2CCCC[C@@H]2CN1C(=O)c1ccno1	-0.34	/
COc1cc2c(=O)n(Cc3ccco3)c(=O)n(CC(=O)c3ccc(Br)cc3)c2cc1OC	-1.3	1.3
COCCNc1nc(Nc2ccc(Cl)cc2C)c2cnn(C)c2n1	/	0.15
Cc1nnc(Nc2ccccc2Cl)[nH]c1=O	-1.4	1.3
COC(=O)c1cc2sc(C)cc2n1Cc1cc(=O)n2ccccc2n1	-1	1.5
CCCNS(=O)(=O)c1ccc2c(c1)oc(=O)n2C	-1.3	0.64
CCN(CC)C(=O)CSc1nc2c(sc(=S)n2-c2ccccc2)c(=O)n1Cc1ccco1	/	0.91
Clc1cccc(-n2cc(-c3ccccc3)c3c(N4CCC5(CC4)OCCO5)ncnc32)c1	-2.3	/
COc1ccc(CNc2ncccc2[N+](=O)[O-])cc1	-1.1	1.4
CCC12CC3CC(NC(C)=O)(C1)CC(C(=O)O)(C3)C2 (configuration not stated)	-0.91	/
CCCNC(=O)c1cnc2sc(N3CCCC(C)C3)nn2c1=O (configuration not stated)	/	-0.33
COc1ccc(OC)c(C2CC(=O)C3=C(C2)NC(=O)CC3c2ccccc2)c1 (configuration not stated)	-1.9	-0.17
CCOC(=O)c1onc(-c2ccc(Br)cc2)c1N	0.17	0.12
O=C1CCN(c2cc(NCc3ccccc3)c3c4c(onc24)-c2ccccc2C3=O)CC1	-1.8	-3.4
Cc1noc2ncnc(N3CCC(C(=O)NCCCN4CCCC(C)C4)CC3)c12 (configuration not stated)	/	0.62
N=C1C(c2nc3ccccc3[nH]2)=C(O)CN1c1ccc(S(N)(=O)=O)cc1	-2	4.4*
O=C(NCc1ccccn1)c1cccc(C(=O)NCc2ccccn2)n1	/	1.1
O=C1c2cccnc2C(=O)N1Cc1ccc(F)cc1S(=O)(=O)NCCCc1ccccc1	/	-0.05
CC1=C(c2ccc(C(C)C)cc2)S(=O)(=O)N=C1N1CCN(C2CCCCC2)CC1	-4	0.51
O=C1CC2(CCCC2)CC(=O)N1c1ccc2c(c1)OCO2	1.4	/
O=C(O)C(c1ccc(F)cc1)N1Cc2ccccc2C1=O (configuration not stated)	-1.4	2.3
Cc1ccc(S(=O)(=O)NCCc2sc3nc(-c4ccc(F)cc4)nn3c2C)cc1C	/	1.4
O=C(NCc1ccc2c(c1)OCO2)C(=O)NCC(c1ccc2c(c1)OCO2)N1CCOCC1 (configuration not stated)	/	0.86
COc1ccc(C(=O)c2cnc3ccc(F)cc3c2S(=O)(=O)c2ccccc2)cc1	-3.1	-0.87
Cc1cc(C)cc(NC(=O)c2cnn3c2NC(c2ccco2)CC3C(F)(F)F)c1 (configuration not stated)	/	-13
S=C(NCc1ccccn1)Nc1ccccc1Cl	-0.58	/
O=C(Cn1c(=O)c2cccn2c2cccnc21)NCCc1cccs1	/	-2
Cc1ccc(-c2cn3nc(CC(C)C)sc3n2)cc1C	-1.3	1.5
Cn1c(NCc2cccc(Cl)c2)nc2ccccc21	-1.8	2.3
CCC1(C)NC(=S)N(c2ccc(C)c(C)c2)N1 (configuration not stated)	-1.4	/
CCOc1cc(C2C3=C(CC(C)(C)CC3=O)N(C)C3=C2C(=O)CC(C)(C)C3)ccc1O	-0.35	1.8
Cc1nn(C(C)C(=O)O)c(=O)c2c1sc1ccccc12 (configuration not stated)	-2.8	3.2
O=C(c1ccco1)N1CCN(C(=O)C(Cc2ccccc2)N2Cc3ccccc3C2=O)CC1 (configuration not stated)	/	-0.84
CCOc1ccc(OCC)c(NS(=O)(=O)c2cc(C(=O)OC)n(C)c2)c1	-1.6	-0.39
Cc1ccc2[nH]c3c(c2c1)CCCC3NC(N)=O (configuration not stated)	-1.2	-0.84
Cn1c(=O)c2c(-c3ccccc3)n3c(c2n(C)c1=O)C(c1ccccc1F)OCC3(C)C (configuration not stated)	-2.2	1.5
S=C1NC2=C(CCc3ccccc32)C(c2cccs2)N1 (configuration not stated)	-3.2	/
CSc1nc2c(c(-c3cccs3)c1C#N)CCCC2	0.78	/
COc1ccc(-n2c(C)cc(CNC(=O)NC3CCCC3)c2C)cc1	/	-6.3
CCN(CC)C(=O)Nc1cn(C)c(=O)c2ccccc12	/	0.53
COc1cc2c(cc1NS(C)(=O)=O)n(C)c(=O)n2C	-0.91	0.49
Cn1nnnc1SCCCNCc1ccc(-c2cccc(Cl)c2)o1	-1.9	2.4
COCCN1C(=O)c2cc3sccc3n2CC1(C)C(=O)NC1CCCC(C)C1C (configuration not stated)	-1.3	3
CNc1ncnc2c1cnn2-c1ccc(C)cc1	/	0.56
COc1cccc(/C=N/NC(=S)Nc2cc(C(F)(F)F)cc(C(F)(F)F)c2)c1O	1	/
O=C(Cn1ncn2nc(-c3cccs3)cc2c1=O)N1CCOCC1	-1.3	-1.4
Cn1ncc2c(Nc3ccc4c(c3)OCCO4)ncnc21	/	2.2
C#CCn1c(-c2nnc(CCC)o2)cc2ccccc21	/	1.9
CCn1c(C)nc2cc(S(=O)(=O)N3CCOCC3)ccc21	-0.65	0.39
Cc1cc2c(c(=O)o1)C(Cc1ccccc1)C(C#N)=C(N)O2 (configuration not stated)	-0.55	/
COCCNC(=O)c1noc2ncnc(N3CCOCC3)c12	/	0.06
COc1ccc(-c2cc(=O)c3cc(OC(=O)c4ccc(OC)c(OC)c4)ccc3o2)cc1	1.4	-0.94
CCOC(=O)N1CCN(C(=O)c2cc3c(=O)n(C)c4ccccc4c3n2C)CC1	-1.5	1.6
O=C(Cn1cc(C(=O)c2cccs2)c2ccccc21)NCc1ccc2c(c1)OCO2	-1.5	0.85
CCOC(=O)c1c(C)[nH]c(NC(=O)Nc2ccccc2Br)c1C	-0.03	-1.1
CCCCCCn1c(=O)[nH]c2nc3cc(NC(C)=O)ccc3nc2c1=O	-1.7	-4.4
CCOC(=O)c1cn[nH]c1S(=O)(=O)N1CCCC1	/	-0.02
Clc1ccc(CSc2nnc([C@@H]3CCCN3)o2)cc1	-0.58	0.21
Cc1ccc2c(c1)C(=O)C(c1ccc3ccccc3n1)C2=O (configuration not stated)	5.5	-0.58
CCOC(=O)C1CCC(CNC(=O)N2CCSc3ncccc32)CC1 (configuration not stated)	/	-0.71
CN(C)S(=O)(=O)c1ccc2nc(NC(=O)c3nc4ccccc4s3)sc2c1	/	1
O=C1Nc2ccccc2/C1=C/c1nc2ccccc2c(=O)n1-c1ccc2ccccc2c1	-1.4	/

Next results follow.
structure,CDC25B CDK2 inh,TAR Tat displ
CN(C)CCNc1nc(N2CCCC2)c2cnn(C)c2n1,/,0.5
O=C(NC1CCSC1=O)C1CCCCC1 (configuration not stated),-1.5,/
CCc1c(C)nc2ncnn2c1Sc1ccccc1N,-1.4,-0.18
CCn1c(CC2C(=O)N(C(C)C)c3ccc(Br)cc32)nc2ccccc2c1=O (configuration not stated),1.4,0.53
Cc1cc(Cl)ccc1OCc1cc(=O)n2c3c(sc2n1)CCCC3,0.14,0.44
Cc1ccc(C)c(-c2nc(Cn3cnc4onc(C)c4c3=O)c(C)o2)c1,/,2.1
CC1CCCC(C)N1CCCNc1ccc2nnc(-c3ccccc3)n2n1 (configuration not stated),0.36,-0.77
CC1CCCCN1C(=O)Cn1c(=O)oc2ccccc21 (configuration not stated),/,-0.53
CC(C)N1C(=O)C(O)(CC(=O)c2ccc(F)cc2)c2ccccc21 (configuration not stated),-0.37,0.88
CSc1ccc(C2CC(=O)Nc3c2c(C)nn3-c2ccc3nnc(C)n3n2)cc1 (configuration not stated),/,-2.2
Cc1nc(-c2ccc(S(=O)(=O)N3CCN(C4CCCCC4)CC3)cc2)co1,/,0.78
Cc1ccc(C)c(NC(=O)Nc2nc3ccc(S(C)(=O)=O)cc3s2)c1,-2.2,1.6
COCCSc1ncc(CO)n1Cc1ccc(C)cc1,/,0.93
Cc1nnc(NC(=O)CSc2nncn2C)s1,0.49,0.51
Cc1ccc(C(=O)c2cn(Cc3ccccc3F)c3nc(C)ccc3c2=O)cc1,0.41,-0.61
COc1ccc(Br)cc1CNC(=O)C1CCCN1c1nn2c(=O)cc(C)nc2s1 (configuration not stated),-0.77,-0.32
COc1cc(C(F)(F)F)nc2cc(C(C)(C)C)nn12,-1.1,/
Cc1nc(-c2n[nH]c(=S)o2)cs1,-1.8,/
CC(C)(C)S(=O)(=O)CC#N,-2,/
COC(=O)c1cc2ccccc2oc1=O,-1.2,/
CC(C)C(NS(=O)(=O)c1cccs1)C(=O)NCCN1CCCCC1 (configuration not stated),/,-0.6
O=C(NCCCN1CCCC1)c1cnc(N2CCOCC2)nc1,/,1.3
Cc1ccc(C2C(C(=O)OC(C)C)C(=O)CC(C)(O)C2C(=O)OC(C)C)cc1 (configuration not stated),0.57,-0.28
Cc1ccc(CNCC2CCCO2)cc1 (configuration not stated),-1.4,2.1
O=C(Cn1ncc2c([nH]c3ccccc32)c1=O)NC1CC1,/,-0.99
COc1ccc(Nc2nc(N3CCCC3)c3ccccc3n2)cc1,2.4,/
Cc1c(-c2nc(-c3ccccc3Cl)no2)nnn1-c1cccc(F)c1,/,1.2
CN1CCN(CCNC(=O)C2c3ccccc3C(=O)N(C3CCCC3)C2c2cccs2)CC1 (configuration not stated),/,0.32
Cc1cc2oc(=O)c3c(c2c2occ(-c4ccc(F)cc4)c12)CCC3,-1.6,/
CCCS(=O)(=O)N1CCN(Cc2noc(CCC(=O)N(C)C3CCCCC3)n2)CC1,/,0.24
CCCc1cc2c(=O)c(-c3ccc4c(c3)OCCO4)coc2cc1O,0.32,-0.27
CC1CCC(NC(=O)c2cc(S(=O)(=O)N3CCc4ccccc43)cn2C)CC1 (configuration not stated),-1.4,1.1
CCCCCCCCCCC[C@@H](C[C@H]1OC(=O)[C@H]1CCCCCC)OC(=O)[C@@H](CC(C)C)NC=O,/,0.12
NC(=O)CS(=O)(=O)c1ccc(Cl)cc1,/,3.9
COc1cccc(-c2noc3ncnc(NCc4ccc5c(c4)OCO5)c23)c1,/,1.5
CCN1CCC(N(Cc2cccs2)C(=O)Nc2ccc3c(c2)OCCO3)CC1,/,0.22
CCc1cc2c(cc3n2CC(C)(C(=O)NC2CCCCC2)N(CCOC)C3=O)s1 (configuration not stated),-1.2,1.6
O=C(c1cc2ccccc2o1)N1CCN=C1SCc1ccccc1,-0.73,/
CCOC(=O)/C(=N\OC)c1csc(NC(=O)c2nn(-c3ccccc3)nc2C)n1,-2.2,/
O=C(NN=C1C2CC3CC(C2)CC1C3)c1cc(-c2cccs2)nc2ccccc12,-0.79,/
O=C(CSc1nnc(-c2ccccc2)o1)NN1CC(=O)N(c2cccc(Cl)c2)CC1=O,-1.2,/
CCN1CCN(c2nc3c(c(=O)[nH]c(=O)n3C)n2CC(O)COC(C)C)CC1 (configuration not stated),-1.8,2.4
CCC(=O)N1CCc2cc(S(=O)(=O)CCC(=O)NC(C)CC)ccc21 (configuration not stated),-3.3,/
COc1ccc(Cl)cc1CNCCCSc1nnnn1C,-1.1,1

Assay outcomes as filed in PubChem.
